Arbovirus inh: blocks arbovirus infection | inhibition, % at 10 µM | AID 1251 | arbovirus infection cell-based antiviral screen | 200,000 compounds, 0.37% hits;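 active means inhibition from about 30%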;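 further: bluetongue infection of BSR cells; cell survival read as ATP light after 72 h; 0% = infected wells without compound and 100% = uninfected wells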
Mtb bLac sens: beta-lactam sensitization of Mtb H37Rv; M. tuberculosis H37Rv growth with meropenem, percent inhibition; hits of this screen are not shown here; inhibition, % at 25 µM; 330,000 compounds, 0.27% hits;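 active means about 74% or more and at least 40 points above the plate without the antibiotic, then above 30% in a dose series; inconclusive means first-round hits that could not be retested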;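 further: growth measured after seven days incubation then overnight dye step; 0% = bacteria only wells and 100% = bacteria with antibiotic; twin plates without the antibiotic show which effects depend on it; some results filed as inactive read as strong as hits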
YopH PTP inh: blocks Yersinia enterocolitica YopH tyrosine phosphatase. AID 898. inhibition, %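 (about 10 µM by stock and volumes)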. fluorescence Ex485/Em525. 140,000 compounds, 0.16% hits;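 active means inhibition of 50% or more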;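 further: controls were vehicle for no effect and minimum signal wells for full effect; inactives centre near -20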
Mtb H37Rv: M. tuberculosis H37Rv growth inhibitors, H37Rv strain (AID 1626) | M. tuberculosis H37Rv growth inhibition; higher % means a stronger effect | inhibition, % at 10 µM, or IC50 in µM where a hit was titrated | 220,000 compounds, 0.95% hits;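 active means confirmed in a dose series; inconclusive means inhibition above 80% but not taken into the dose series; inactive means below 80% or under 30% at every dose of the series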;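 further: bacteria incubated seven days before Alamar blue readout; 0% = bacteria only wells and 100% = bacteria with antibiotic wells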
RecA intein inh: blocks M. tuberculosis RecA intein splicing; inhibition, %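 (about 9 µM by stock and volumes)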; P9WHJ3; cell-free RecA intein splicing, fluorescence; 290,000 compounds, 0.75% hits; in the data active means inhibition above about 30%; inconclusive means no clear call, values can overlap the other calls;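 further: 0% = vehicle wells and 100% = reference inhibitor control wells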
Target sequence (P9WHJ3 whole entry, looked up): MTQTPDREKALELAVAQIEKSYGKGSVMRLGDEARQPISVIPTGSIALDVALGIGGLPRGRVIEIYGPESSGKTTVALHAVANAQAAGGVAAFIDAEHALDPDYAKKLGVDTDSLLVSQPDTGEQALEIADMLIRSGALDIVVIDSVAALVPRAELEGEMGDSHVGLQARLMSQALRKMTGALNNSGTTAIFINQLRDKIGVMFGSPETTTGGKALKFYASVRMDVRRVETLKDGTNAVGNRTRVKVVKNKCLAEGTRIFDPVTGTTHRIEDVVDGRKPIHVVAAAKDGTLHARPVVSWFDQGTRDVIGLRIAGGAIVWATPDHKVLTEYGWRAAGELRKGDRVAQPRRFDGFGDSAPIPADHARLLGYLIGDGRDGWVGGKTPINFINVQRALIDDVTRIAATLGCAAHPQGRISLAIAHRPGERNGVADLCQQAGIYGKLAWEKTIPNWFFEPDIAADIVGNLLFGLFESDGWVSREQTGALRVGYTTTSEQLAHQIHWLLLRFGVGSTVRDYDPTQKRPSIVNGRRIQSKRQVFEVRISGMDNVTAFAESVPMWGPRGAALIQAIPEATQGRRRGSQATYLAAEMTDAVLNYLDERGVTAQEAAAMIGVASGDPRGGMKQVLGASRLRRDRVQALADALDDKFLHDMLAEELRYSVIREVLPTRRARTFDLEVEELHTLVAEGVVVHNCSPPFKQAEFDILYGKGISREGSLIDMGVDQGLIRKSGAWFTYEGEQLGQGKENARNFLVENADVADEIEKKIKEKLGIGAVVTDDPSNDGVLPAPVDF
Arbovirus inh repeat: further read-out of Arbovirus inh, marked with its call; inhibition, %; measured here: 10K subset replicate screen; many hits read low in the repeat;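 first of two repeat runs on a subset; 0% = infected and 100% = uninfected wells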
The depositor's hits bear a star; ? = inconclusive; / = not tested or not shown. A portion of the library; count on the stated rates, not on these rows.

Sample of the layout:
SMILES	Arbovirus inh	Mtb bLac sens	YopH PTP inh	Mtb H37Rv	RecA intein inh	others
COc1ccc(C(c2nnnn2C(C)(C)C)N2CCN(C)CC2)cc1OC (centres undefined)	8	-4	-24	-13%	-13
CN1CC[C@@]23CCCC[C@@H]2[C@@H]1Cc1ccc(O)cc13	0	4	-26	/	-0.4
Cc1sc2ncn(CC(=O)N3CCN(c4ccccn4)CC3)c(=O)c2c1S(=O)(=O)N1CCCCC1	/	0	/	/	5.1
CCCn1c(SCC(=O)N2CCCCC2)nnc1-c1ccccn1	-2	-4	/	-5%	0.8

All compounds of this part, from the start:
SMILES	Arbovirus inh	Mtb bLac sens	YopH PTP inh	Mtb H37Rv	RecA intein inh	others
COc1ccc(C(c2nnnn2C(C)(C)C)N2CCN(C)CC2)cc1OC (centres undefined)	8	-4	-24	-13%	-13
CN1CC[C@@]23CCCC[C@@H]2[C@@H]1Cc1ccc(O)cc13	0	4	-26	/	-0.4
Cc1sc2ncn(CC(=O)N3CCN(c4ccccn4)CC3)c(=O)c2c1S(=O)(=O)N1CCCCC1	/	0	/	/	5.1
CCCn1c(SCC(=O)N2CCCCC2)nnc1-c1ccccn1	-2	-4	/	-5%	0.8
CC1(C)Cc2c(C#N)c(N3CCN(C(=O)c4ccco4)CC3)nc(Cc3ccccc3)c2CO1	-35	83	-25	-6%	23
Clc1ccc(N2CCN(/N=C/c3cccnc3)CC2)cc1	/	6	/	/	0.6
COc1ccc(/C=N/NC(=S)Nc2cccc(C(=O)O)c2)cc1	-2	-5	/	-12%	-0.4
CC(C)Oc1ccc(/C=N/NC(=O)c2ccc(N(Cc3ccccc3)S(C)(=O)=O)cc2)cc1	-20	-2	-33	-6%	2.0
CC(C)C[C@H](NC(=O)c1ccc(OC2CCN(C(=O)C3CC3)CC2)cc1)C(N)=O	13	-4	/	0%	-6.7
C#Cc1ccc([C@H]2C=C(C(=O)Nc3ccccc3)O[C@@H](OCc3ccc(CO)cc3)C2)cc1	/	1	/	-4%	13
Cc1cc2c(cc1S(=O)(=O)N1CC(C)CC(C)C1)OCC(=O)N2 (centres undefined)	/	9	/	/	2.0
Cc1ccc(OCC(=O)N/N=C\c2cccn2C)c([N+](=O)[O-])c1	/	11	/	/	3.1
COCCNc1c2c(nc3c(-c4ccccc4)c(C)nn13)CCC2	/	6	/	2%	-1.0
Cc1ccc2oc(=O)c3cnn(CC(=O)NCCCOC(C)C)c3c2c1	2	3	-35	4%	0.6	Arbovirus inh repeat=5
CC(C(=O)N=Nc1c(O)[nH]c2ccccc12)n1cnc2ccccc2c1=O (centres undefined)	-1	8	-19	-2%	-2.7
COc1ccc(-c2noc(CCC(=O)Nc3ccc(C)c(C)c3)n2)cc1	8	97	5	23µM*	0.0
COc1ccc(C2C(C#N)=C(N)Oc3c2c(=O)oc2ccccc32)cc1Cn1cc([N+](=O)[O-])cn1 (centres undefined)	3	-16	-19	/	3.0
COc1cc([N+](=O)[O-])ccc1NC(=O)CCCOc1cccc(C)c1	7	3	-31	6%	5.5
COc1ccc(N2C(=O)CCC(C(=O)Nc3cccc(C)n3)C2c2ccc(OC)c(OC)c2)cc1 (centres undefined)	-2	7	-35	-1%	1.6
Cc1ccccc1N1CCN(C2CCCN(C(=O)CCc3c(C)noc3C)C2)CC1 (centres undefined)	/	0	/	/	-2.8
O=C(O)CCCN1C(=O)C2C3C=CC(C2C1=O)C1C(=O)N(CCCC(=O)O)C(=O)C31 (centres undefined)	/	7	/	/	-3.7
CCCCSc1nnc2c(n1)OC=Nc1ccccc1-2	/	-3	/	/	5.2
Cc1ccccc1OCC(=O)OC(C(=O)c1ccccc1)c1ccccc1 (centres undefined)	6	-11	-21	-2%	2.1
CN(C)c1ccc(NC(=O)CSc2nc(N)c(C(=O)Nc3ccc(N(C)C)cc3)s2)cc1	1	91	-20	-4%	-3.2
O=C(O)CC(c1ccc(Br)cc1)N1Cc2ccccc2C1=O (centres undefined)	/	0	/	/	0.8
Cc1ccc(-c2nnn(CC(=O)N(CCN3CCOCC3)C(C(=O)NC(C)(C)C)c3ccco3)n2)cc1 (centres undefined)	9	-3	/	-11%	0.8
CCC1CCCCN1CCCNC(=O)c1nn(C)c2c1CS(=O)(=O)c1ccccc1-2 (centres undefined)	/	-2	/	/	-1.2
O=C(Cn1cccc1C(=O)c1ccccc1)NCc1ccc(F)cc1	/	-6	/	/	2.0
CCCn1nnnc1NCc1ccc(F)cc1	-2	1	/	-5%	-2.0
CO/N=C(\C(=O)N[C@@H]1C(=O)N2C(C(=O)O)=C(COC(N)=O)CS[C@H]12)c1ccco1	4	17	-32	-12%	-1.2

Filtered by structure, those above containing two or more sulfur atoms.
SMILES	Arbovirus inh	Mtb bLac sens	YopH PTP inh	Mtb H37Rv	RecA intein inh	others
Cc1sc2ncn(CC(=O)N3CCN(c4ccccn4)CC3)c(=O)c2c1S(=O)(=O)N1CCCCC1	/	0	/	/	5.1
CN(C)c1ccc(NC(=O)CSc2nc(N)c(C(=O)Nc3ccc(N(C)C)cc3)s2)cc1	1	91	-20	-4%	-3.2

More results follow.
SMILES	Arbovirus inh	Mtb bLac sens	YopH PTP inh	Mtb H37Rv	RecA intein inh	others
CC(=O)Nc1cc2c(cc1NC(=O)Cn1nnc(-c3ccc(C)o3)n1)OCCO2	1	1	/	3%	-0.7
O=C1C=C(c2ccccc2)C(O)(c2ccccc2)C1 (centres undefined)	7	8	13	15%	/
CC(=O)N1c2ccc(S(=O)(=O)N3CCC(C(=O)Nc4ccc(C)cn4)CC3)cc2CC1C (centres undefined)	/	0	/	/	-0.2
O=C(COC(=O)c1ncc(Cl)c(Cl)c1Cl)NC1CCCCCC1	/	67	/	/	0.4
O=C(Cc1cccc2ccccc12)Nc1ccc(O)cc1C(=O)O	/	-3	/	/	-27
Cc1ccc2c(c1)C1CC(C)(O2)N(c2cccc(C(=O)NC3CCN(Cc4ccccc4)CC3)c2)C(=O)N1 (centres undefined)	/	3	/	/	0.4
CCc1ccc(-c2cc(C)no2)cc1S(=O)(=O)N1CCN(c2ccc(F)cc2)CC1	/	6	/	/	7.9
Cc1ccccc1NC(=O)CSc1nnc(-c2ccccc2)n1-c1ccccc1	1	-12	6	-3%	-3.5
Cc1cc(=O)oc(C)c1C(=O)Nc1cccnc1Cl	/	-8	/	3%	-0.8
N#C/C(=C1\CCCN1)c1ccc2ccccc2n1	5	-2	-55	-8%	-3.3	Arbovirus inh repeat=1
COc1cccc(C(=O)C2CN(c3ccccc3)CC2c2ccc(Cl)cc2)c1 (centres undefined)	7	6	-28	7%	2.8
CCOC(=O)C1=C(COc2ccccc2)NC(=O)NC1c1ccc(Br)cc1 (centres undefined)	/	-15	/	/	-1.2
CN(C)Cc1ccccc1Sc1ccc(Br)cc1	-8	3	-19	3%	-1.0
COc1cc(C2Sc3ccccc3NC3=C2C(=O)OC3)cc(OC)c1OC (centres undefined)	-20	-1	37	-3%	1.1
COc1cc(/C=N/n2cnnc2)ccc1OC(=O)c1ccncc1	3	-2	-47	1%	1.2	Arbovirus inh repeat=-1
CC1CCN(c2nc3ccccc3nc2N2CCC(C)CC2)CC1	-4	-4	-32	/	0.7
CC(=O)Nc1cccc(NC(=O)CSc2ncc(-c3ccccc3)[nH]2)c1	6	-4	/	-1%	-0.2
CCOc1ccc(S(=O)(=O)n2nnc3ccccc32)cc1C(C)C	3	79	-47	3%	0.9
CCOC(=O)Nc1oc2ccccc2c(=O)c1C	0	-5	23	-1%	2.1
Cc1ccc(S(=O)(=O)N2CCCC(C(=O)NCc3ccc4c(c3)OCO4)C2)cc1 (centres undefined)	/	-8	/	/	0.5
CC(=O)c1ccc(S(=O)(=O)N2Cc3ccccc3CC2C(=O)O)cc1 (centres undefined)	/	-3	/	-6%	4.4
COc1cc(C(=O)OCc2cc(=O)c(O)co2)ccc1OC(F)F	/	2	/	/	5.3
O=C(NCc1ccco1)c1ccccc1-c1ccccc1	3	99	-10	-6%	/
CCCCOCCCN1C(C)=CC(=C2C(=O)NC(=S)NC2=O)C=C1C	/	-2	/	2%	-2.2
CC(C)c1ccc(-c2nc(N3CCCCC3)[nH]c(=O)c2C#N)cc1	13	-13	-21	-6%	-0.3	Arbovirus inh repeat=6
CCN(CCn1cccn1)C(=O)CC1C(=O)NCCN1CC1CCCCC1 (centres undefined)	0	-2	/	-6%	-7.1
Cc1ccc(OCC(=O)N2CCC(N3CCCCCC3)CC2)cc1	-2	-6	-41	3%	-0.8
Cc1cnc(NC(=O)c2ccco2)s1	1	-2	-31	-2%	/
CN(C)S(=O)(=O)N1CCN(C(=O)c2ccc3c(c2)OCO3)CC1	/	5	/	/	0.0
C=CCC1=C/C(=C\c2c(N)n3nc(CC(=O)N4CCCC4)sc3nc2=O)C=C(OC)C1=O	/	-1	/	/	-3.3
O=C(CCl)Nc1c[nH]c(=O)[nH]c1=O	9	/	/	68%	/
CC1=C(C(=O)Nc2ccccc2)SCCO1	3	0	32	-2%	-1.4
O=C(COC(=O)c1cc(Br)c(Br)s1)NCCC1=CCCCC1	-8	92	-7	18%	0.9
O=C1/C(=C/c2ccco2)N=C(N2CCCCC2)N1c1ccccc1	0	1	-28	14%	-2.9
C=CCn1c(C)cc(C2=NNC(=NC(C)(C)C)SC2)c1C	-2	-1	-27	6%	5.9
O=C(Nc1ccccc1)c1cc(S(=O)(=O)N2CCSCC2)ccc1Cl	4	-4	-32	2%	1.2
COc1ccc(C(=O)C2CCN(C(=O)Nc3ccccc3C)CC2)cc1	/	-5	/	/	6.3
CC1(C)CC(=O)c2sc(NC(=O)CN3C(=O)CCC3=O)nc2C1	4	2	-45	2%	1.0	Arbovirus inh repeat=2
N#C/C(=C/c1ccc(N2CCCCC2)o1)C(=O)Nc1ccc2ccccc2c1	-7	/	-21	?	-2.2
COc1cccc(N2CCN(S(=O)(=O)c3ccc(-c4cnc(C5CC5)o4)cc3)CC2)c1	/	1	/	/	4.0
CCCn1c2ccccc2c2nnc(SCC(=O)Nc3cc(C)on3)nc21	6	39	-23	-3%	-3.2
CC(OC(=O)c1cc2sccc2n1C)C(=O)NCc1ccc2c(c1)OCO2 (centres undefined)	-20	11	-10	-1%	-1.4
O=C(CC1C(=O)NCCN1Cc1ccccc1C(F)(F)F)NCCN1CCCCC1=O (centres undefined)	/	-1	/	/	0.1
O=S(=O)(NCc1ccccc1)c1ccc2ccccc2c1	/	8	/	/	3.7
CCOC(=O)Cc1csc(NC(=O)CSc2nc(=O)[nH]c3c2CCC3)n1	/	-12	/	/	1.2
O=C(Nc1cccnc1)c1cccs1	24	5	27	-4%	0.5
S=c1[nH]nc(COc2ccccc2)n1/N=C/c1c(Cl)cccc1Cl	/	5	/	/	1.2
COC(=O)c1c(NC(=O)CN2CCN(c3ccccc3)CC2)c2c(C)cccc2n1C	16	-8	-42	4%	0.3
CNc1nnc(Sc2ncccc2[N+](=O)[O-])s1	/	100	/	?	-6.2
Cc1ccc2c(c1)S/C(=C\c1cccc[n+]1C)N2CCO	/	-3	/	/	0.5

Among those listed so far, 4 contain a nitro group on carbon.
SMILES	Arbovirus inh	Mtb bLac sens	YopH PTP inh	Mtb H37Rv	RecA intein inh	others
Cc1ccc(OCC(=O)N/N=C\c2cccn2C)c([N+](=O)[O-])c1	/	11	/	/	3.1
COc1ccc(C2C(C#N)=C(N)Oc3c2c(=O)oc2ccccc32)cc1Cn1cc([N+](=O)[O-])cn1 (centres undefined)	3	-16	-19	/	3.0
COc1cc([N+](=O)[O-])ccc1NC(=O)CCCOc1cccc(C)c1	7	3	-31	6%	5.5
CNc1nnc(Sc2ncccc2[N+](=O)[O-])s1	/	100	/	?	-6.2

Next results follow.
SMILES	Arbovirus inh	Mtb bLac sens	YopH PTP inh	Mtb H37Rv	RecA intein inh	others
Cc1ccc(OCC(=O)Nc2ccc3oc(=O)ccc3c2)cc1	/	61	/	/	0.6
O=C(NNC(=O)c1cccc2ccccc12)c1ccc(-c2ccccc2)cc1	-9	1	-27	-10%	1.4
Cc1ccc(CNC(=O)CCCC(=O)O)cc1	0	-3	-26	-14%	-1.7
CCn1cc(S(=O)(=O)N2CCc3ccccc3C2)cn1	/	-3	/	/	-5.6
CC(=O)NS(=O)(=O)c1ccc(NC(=O)c2cccc(S(=O)(=O)N3CCc4ccccc43)c2)cc1	1	4	/	1%	1.3
Cc1cccc(C)c1OCC(=O)Nc1cccc(NC(=O)c2ccco2)c1	-4	0	-11	17%	7.1
CNC(=O)CS(=O)CC(=O)Nc1cc(OC(C)C)c(Cl)cc1Cl (centres undefined)	2	0	/	0%	0.1
Cc1ccc(S(=O)(=O)Cn2nnnc2CN(Cc2ccco2)Cc2cccs2)cc1	4	-10	-48	-17%	/
CC1(C)CC2CC(C)(CN2C(=O)c2ccc([N+](=O)[O-])cc2)C1 (centres undefined)	-4	3	/	/	2.3
CCN(C(=O)COC(=O)c1nn(-c2ccccc2)c(=O)c2ccccc12)C1CCS(=O)(=O)C1 (centres undefined)	/	2	/	6%	0.6

Screening data: PubChem BioAssay, several laboratories
